Source: PubChem BioAssay
Beta apoptosis – beta cell apoptosis inhibition | INS-1E cytokine-induced death, ATP luminescence, 48 h; percent of positive-control rescue, neutral wells zero | protection from apoptosis, % (test concentration not listed) | 0.8% of 300,000 active;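 active = all replicates at 75% or more, or half of them and the mean; inconclusive = half reach 75% but not the mean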;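 also: 0% = cytokine-treated negative control wells and 100% = positive control rescue; higher means more ATP so stronger rescue from cytokine killing; wells of about 40 µL received 100 nL stock; the first replicate is given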
T cruzi inh – blocks replication of Trypanosoma cruzi | T. cruzi beta-gal in NIH3T3, luminescence, 90 h | 1.4% of 300,000 active | AID 1885 | inhibition, % (concentration not given with the values);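 active = mean inhibition across valid replicates above about 55%, limit read from the data; inconclusive = mean below that limit but half or more replicates reach it; inactive = mean below it, under half of replicates reach it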;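 also: signal also drops with host cell toxicity which is not excluded here; 0% = plate median of DMSO wells and 100% = zero luminescence signal; higher percent means less beta-gal luminescence so fewer parasites; stock transfer was 50 nL into about 50 µL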
Vif TR-FRET – inhibitors of Vif binding to APOBEC3G peptide, primary screen, biochemical, TR-FRET, GST-Vif 1-94, biotin-A3G peptide, dose response retest (AID 1117319). 0.57% of 260,000 active. inhibition, %, or IC50 in µM where a hit was titrated. TR-FRET GST-Vif / biotin-A3G peptide binding; higher % means a stronger effect; test concentration not given here; strong numbers were not always called active;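 active = above the screen mean plus three standard deviations and confirmed in dose response; inconclusive = results disagree or hit not tested in dose response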;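 also: Vif residues 1-94 fused to GST binding biotinylated APOBEC3G peptide 110-148; 0% = full assay without inhibitor and 100% = GST in place of GST-Vif; retest series ran down from 100 µM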
MLL AF4-AF9 inh – blocks AF4 peptide binding to human AF9; P42568; AlphaScreen, biotin-AF4 peptide binding to FLAG-AF9; inhibition, % at 10 µM; 0.47% of 350,000 active; AID 651704;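 active = every replicate reaching a set inhibition limit, whatever the replicate mean, cut at about 25% in these data; inconclusive = mean inhibition reaches that limit but some replicates miss it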;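 also: 0% = plate neutral control median and 100% = total signal loss; the record names both 10 and 1 µM as test concentration; the first replicate is given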
RanGTP-Imp inh – disruptors of Ran-importin-beta complex formation – biochemical, FRET, CFP-Ran, YFP-importin-beta, homogeneous, primary screen. cell-free CFP-Ran/YFP-importin-beta FRET ratio. 1.1% of 300,000 active. inhibition, % (concentration not given with the values);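 active = most replicates above 15%; inconclusive = exactly half above 15%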;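 also: 0% = DMSO wells and 100% = Ran loaded with GDP instead of GTP; wells of about 40 µL received 100 nL stock; the first replicate is given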
A1 inh – inhibitors of the anti-apoptotic protein A1, read as caspase activation | MEF A1-2A-BIM cells, Caspase-Glo 3/7 luminescence, 3 h; percent of clofoctol response, vehicle zero | caspase activation, % (concentration not given with the values) | 0.066% of 330,000 active | AID 2462;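 active = over half of replicate activation scores above 10%, or exactly half above 10 with the replicate mean above 10; inconclusive = replicate mean below 10 yet half the replicates above 10; inactive = over half of replicates below 10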;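 also: wells of about 30 µL received 50 nL stock; many hits fall short of the cut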
Calb FLC – affects C. albicans growth with fluconazole. AID 1979. C. albicans CaCi-2 (fluconazole-resistant clinical isolate) + fluconazole, Alamar Blue growth, 48 h. growth inhibition, % (no concentration beside the values). 0.57% of 300,000 active;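 active = most replicates above 75%; inconclusive = exactly half above 75%; inactive = most below 75%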;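 also: all wells also contain fluconazole at 8 µg/ml as a sub-toxic cotreatment; 0% = median of DMSO wells and 100% = median of geldanamycin control wells; wells of about 8 µL received 7.5 nL stock; the first replicate is given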
LANA-H2B inh – blocks KSHV LANA binding to histone H2A/H2B | 0.6% of 320,000 active | cell-free LANA-H2A/H2B peptide, fluorescence polarization | inhibition, % (concentration not given with the values) | AID 2629; in the data active = inhibition mostly above about 10%, no sharp cut-off; inactive = mostly below about 6.7%;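 also: stock transfer was 7.5 nL into about 10 µL; 0% = median of vehicle wells and 100% = median of positive control wells; one replicate is shown; the record names a cut of 25% in any replicate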
Target sequence (Q9QR71 whole entry, looked up): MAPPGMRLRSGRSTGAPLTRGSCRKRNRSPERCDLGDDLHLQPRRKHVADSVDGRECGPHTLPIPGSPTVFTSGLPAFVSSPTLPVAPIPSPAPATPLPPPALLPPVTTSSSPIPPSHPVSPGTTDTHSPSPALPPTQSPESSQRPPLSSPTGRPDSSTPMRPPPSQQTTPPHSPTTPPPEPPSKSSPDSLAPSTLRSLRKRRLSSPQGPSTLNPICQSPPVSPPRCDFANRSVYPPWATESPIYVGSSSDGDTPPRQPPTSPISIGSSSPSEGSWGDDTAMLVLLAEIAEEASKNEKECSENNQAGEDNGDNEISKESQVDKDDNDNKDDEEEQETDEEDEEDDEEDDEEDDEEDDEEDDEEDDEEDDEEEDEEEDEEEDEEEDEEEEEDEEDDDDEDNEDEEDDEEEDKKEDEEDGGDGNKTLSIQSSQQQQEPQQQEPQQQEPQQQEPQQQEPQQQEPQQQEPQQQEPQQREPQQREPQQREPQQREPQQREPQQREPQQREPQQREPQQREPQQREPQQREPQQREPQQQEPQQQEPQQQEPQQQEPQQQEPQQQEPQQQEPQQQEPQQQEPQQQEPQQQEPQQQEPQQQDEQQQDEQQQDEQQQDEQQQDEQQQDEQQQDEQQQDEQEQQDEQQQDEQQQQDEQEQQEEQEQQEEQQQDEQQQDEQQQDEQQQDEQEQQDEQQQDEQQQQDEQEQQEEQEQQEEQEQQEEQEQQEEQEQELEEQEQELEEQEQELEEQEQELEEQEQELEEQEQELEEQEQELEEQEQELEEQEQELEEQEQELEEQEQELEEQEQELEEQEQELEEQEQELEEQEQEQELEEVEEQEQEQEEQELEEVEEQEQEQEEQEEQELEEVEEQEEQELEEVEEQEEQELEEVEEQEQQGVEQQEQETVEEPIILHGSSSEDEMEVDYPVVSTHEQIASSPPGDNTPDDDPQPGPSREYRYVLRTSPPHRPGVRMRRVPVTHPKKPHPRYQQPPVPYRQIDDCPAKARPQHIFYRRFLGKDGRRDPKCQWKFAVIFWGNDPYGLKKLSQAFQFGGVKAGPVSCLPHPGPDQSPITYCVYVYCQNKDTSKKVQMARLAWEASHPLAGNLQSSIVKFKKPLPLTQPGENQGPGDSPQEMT
Starred values were filed as active, the others as inactive; ? = inconclusive; · = no result given; & = joins results of further samples.

The first 5 compounds as a preview:
item	Compound	Beta apoptosis	T cruzi inh	Vif TR-FRET	MLL AF4-AF9 inh
1	CCCC(=O)C1=C(O)C(C(=O)OC)C(C)(C)CC1=Nc1ccc(Br)cc1 (stereo not drawn)	4	17	-5%	2.9
2	COC(=O)c1c(NC(=O)CC2Nc3ccccc3NC2=O)sc(C)c1C (stereo not drawn)	2	2	-3%	-8.2
3	CCOC(=O)c1c(NC(=O)CSc2nnc(-c3ccccc3)o2)sc(C(C)=O)c1C	-10	-2	-16%	·
4	COc1ccc2nc3c(cc2c1)c(NC(=O)C1CCCO1)nn3CC(C)C (stereo not drawn)	-8	3	4%	·
5	Cc1ccc(OCCn2c(SCCO)nc3c(N)ncnc32)cc1	-4	-3	-1%	1.9

item	RanGTP-Imp inh	A1 inh	Calb FLC	LANA-H2B inh
1	-1.2	1.6	14	2.2
2	5.7	1.4	0	-6.1
3	1.2	-0.1	0	-1.4
4	119*	0.0	1	-0.6
5	4.8	0.6	-7	1.5

All compounds of this part, from the start:
item	Compound	Beta apoptosis	T cruzi inh	Vif TR-FRET	MLL AF4-AF9 inh
1	CCCC(=O)C1=C(O)C(C(=O)OC)C(C)(C)CC1=Nc1ccc(Br)cc1 (stereo not drawn)	4	17	-5%	2.9
2	COC(=O)c1c(NC(=O)CC2Nc3ccccc3NC2=O)sc(C)c1C (stereo not drawn)	2	2	-3%	-8.2
3	CCOC(=O)c1c(NC(=O)CSc2nnc(-c3ccccc3)o2)sc(C(C)=O)c1C	-10	-2	-16%	·
4	COc1ccc2nc3c(cc2c1)c(NC(=O)C1CCCO1)nn3CC(C)C (stereo not drawn)	-8	3	4%	·
5	Cc1ccc(OCCn2c(SCCO)nc3c(N)ncnc32)cc1	-4	-3	-1%	1.9
6	CCc1cccc(C)c1NS(=O)(=O)c1cccs1	-2	-2	1%	-0.2
7	COc1ccc(C(=S)N2CCOCC2)cc1OC(=O)c1cc(OC)c(OC)c(OC)c1	-4	-17	2%	9.7
8	CCOc1cc(CNc2ccccc2)cc(Br)c1OCC(=O)NC(C)(C)C	19	11	1%	·

item	RanGTP-Imp inh	A1 inh	Calb FLC	LANA-H2B inh
1	-1.2	1.6	14	2.2
2	5.7	1.4	0	-6.1
3	1.2	-0.1	0	-1.4
4	119*	0.0	1	-0.6
5	4.8	0.6	-7	1.5
6	0.5	0.8	-2	-2.2
7	1.4	0.1	15	4.2
8	-6.1	-0.2	1	3.3

The results go on.
item	Compound	Beta apoptosis	T cruzi inh	Vif TR-FRET	MLL AF4-AF9 inh
9	CCOC(=O)/C(C(=Nc1ccccc1)Nc1ccccc1)=C(\C)O	0	1	-1%	-2.2
10	O=C1NCCN/C1=C\C(=O)c1ccccc1	-3	-19	-5%	-1.2
11	Cc1ccc(C(=O)Cn2nnc(-c3ccccc3-n3cnnn3)n2)cc1	-6	-10	20%	·
12	COc1cc2c(cc1OC)CN(Cc1ccc(OC)c(C)c1OC)CC2	-8	-11	5%	·
13	O=C(N1CCNCC1)N1CCOCC1	1	-9	-3%	·
14	CC1=C(C(=O)OCC2CCCO2)C(c2ccccc2OC(C)C)C2=C(CC(c3ccco3)CC2=O)N1 (stereo not drawn)	-1	2	20%	·
15	CCC(C)n1c(=S)[nH]c2ccccc2c1=O (stereo not drawn)	6	-17	·	-3.5
16	Cc1ccc(C2CC(c3cccs3)=NN2C(=O)CSC2=NN3CCCC(=O)N=C3S2)cc1 (stereo not drawn)	-5	9	-5%	-7.1

item	RanGTP-Imp inh	A1 inh	Calb FLC	LANA-H2B inh
9	2.0	-0.1	3	0.1
10	2.6	-0.7	4	-0.3
11	11	0.0	21	-1.3
12	0.9	0.8	-9	2.5
13	-2.4	0.3	3	-0.2
14	28*	1.3	·	-1.7
15	0.7	0.6	-29	9.3
16	1.0	-0.4	-5	6.7

Next part.
item	Compound	Beta apoptosis	T cruzi inh	Vif TR-FRET	MLL AF4-AF9 inh
17	Cc1ccc(S(=O)(=O)CCC(=O)OCc2ccccc2F)cc1	-6	-19	2%	-4.9
18	CN(C)c1ccc(/C=N/NC(=O)CN(c2ccccc2Cl)S(C)(=O)=O)cc1Br	2	16	4%	·
19	Cc1ccc(NC(=O)CSc2nnc(NC(=O)c3ccc(S(=O)(=O)N4CCOCC4)cc3)s2)cc1	1	2	-1%	·
20	O=C(NCc1cccc(OC(F)(F)F)c1)c1ccc2c(c1)S(=O)(=O)c1cc(Cl)ccc1C2=O	1	·	·	1.1
21	Cc1cc(S(=O)(=O)N2CCOCC2)ccc1OCC(=O)NCc1ccco1	-1	-7	·	-1.2
22	COc1ccc(-c2nnc(SCC(=O)NC(=O)Cc3ccccc3)n2C)cc1	-1	·	-3%	0.6
23	COc1cccc(-c2cc(C(=O)N3CCN(c4ccccc4OC)CC3)no2)c1	2	12	22%	1.3
24	CCCc1cc(=O)n2[nH]c(-c3cc(OC)c(OC)c(OC)c3)nc2n1	-14	3	0%	·

item	RanGTP-Imp inh	A1 inh	Calb FLC	LANA-H2B inh
17	0.0	0.3	-7	0.3
18	-2.5	0.1	-6	-1.4
19	-1.8	-0.5	2	-4.0
20	·	0.9	·	4.9
21	1.0	0.1	-5	1.6
22	·	-0.6	·	-1.9
23	0.3	-0.3	-2	2.2
24	0.1	-0.5	2	4.0

Following part:
item	Compound	Beta apoptosis	T cruzi inh	Vif TR-FRET	MLL AF4-AF9 inh
25	CCOC(=O)n1c(=O)n(Cc2c(Cl)cccc2Cl)c2ccccc21	3	6	2%	·
26	O=S(=O)(NC1CC1)c1ccc(S(=O)(=O)N2CCN3CCCC3C2)cc1 (stereo not drawn)	-3	10	-1%	-0.4
27	CCOC(=O)c1c(C)n(C)c2cc(Br)c(C)cc12	-3	13	-23%	·
28	Cc1ccc(NC(=O)CSc2nccn2C)cc1F	-9	-6	·	-6.8
29	COc1ccc(Nc2ccnc(Nc3ccc(OC)cc3)n2)cc1	36	46	-4%	·
30	COCCSc1ccccc1C(=O)Nc1cc(C)ccn1	2	4	·	7.8
31	O=C(O)CC(C(=O)NC1CCCCC1)C1CCCO1 (stereo not drawn)	-3	-13	13%	·
32	Cc1cc2nc(C3CCN(C(=S)NCC(C)C)CC3)[nH]c2cc1C	8	0	16%	1.0

item	RanGTP-Imp inh	A1 inh	Calb FLC	LANA-H2B inh
25	9.8	0.6	2	-2.2
26	0.8	0.7	4	4.9
27	?	0.3	8	-1.3
28	-2.1	0.0	-4	7.7
29	5.0	-0.2	-32	-5.5
30	-5.2	1.1	8	8.1
31	9.9	-4.7	2	3.2
32	-1.3	-0.3	9	3.9

(more compounds)
item	Compound	Beta apoptosis	T cruzi inh	Vif TR-FRET	MLL AF4-AF9 inh
33	c1ccc(CCCCNCC2COc3ccccc3O2)cc1 (stereo not drawn)	-9	31	19%	-1.8
34	O=S(=O)(NCCOc1ccccc1Cl)c1ccc2oc3ccccc3c2c1	-8	3	·	·
35	CN1C(=O)C(O)(CC(=O)c2cccnc2)c2ccccc21 (stereo not drawn)	-1	-1	0%	·
36	CC(=O)Nc1ccc(S(=O)(=O)NNC(=O)c2ccc([N+](=O)[O-])cc2)cc1	-4	-4	·	-2.5
37	COc1cc2[nH]c(=O)n(CCCC(=O)NCCc3ccccc3)c(=O)c2cc1OC	8	4	-7%	·
38	CCCCn1c(C(C)NC(=O)COC)nc2ccccc21 (stereo not drawn)	-11	0	28%	·
39	COc1ccc(C(=O)Nc2cc3c(cc2OC)CCCC3)cc1Br	5	19	-5%	·
40	CCn1cc(C(=O)OCC(=O)Nc2c(C)cccc2C)c(=O)c2ccc(C)nc21	6	-3	-3%	-1.0

item	RanGTP-Imp inh	A1 inh	Calb FLC	LANA-H2B inh
33	-0.5	-1.3	-3	1.1
34	0.0	-0.5	-3	0.3
35	1.0	-0.4	-5	5.5
36	?	0.0	7	0.5
37	2.8	-0.9	13	-2.8
38	1.3	1.8	0	-1.9
39	0.1	0.6	5	1.8
40	1.1	-0.2	-10	4.7

Next part
item	Compound	Beta apoptosis	T cruzi inh	Vif TR-FRET	MLL AF4-AF9 inh
41	Cc1ccc(S(=O)(=O)N2CCCC(C(=O)NCC3CCCO3)C2)cc1 (stereo not drawn)	2	-2	·	-2.8
42	O=C(N/N=C/C=C/c1cccc([N+](=O)[O-])c1)C(O)c1ccccc1 (stereo not drawn)	0	-7	·	-0.1
43	COC(=O)c1c(NC(=O)COC(=O)Cn2cnc3ccccc32)sc(C)c1C	-2	9	-3%&-3%	·
44	CCOC(=O)/C(C#N)=C/C1=C(N2CCCC2)CC(C)(CC)OC1 (stereo not drawn)	-3	-5	-2%	·
45	Oc1ccc(N2CCN(c3ccnc4cc(Cl)ccc34)CC2)cc1	24	15	22%	4.3
46	CCc1cc(CNC(=O)c2cc(COc3ccc(C)nc3)on2)on1	·	3	1%	-1.9
47	COc1ccc(Cc2nnc(NC(=O)c3cc(OC)cc(OC)c3)s2)cc1	-8	1	·	-2.0
48	O=c1c(=O)n(O)c2ccccc2n1O	1	-33	-1%	·

item	RanGTP-Imp inh	A1 inh	Calb FLC	LANA-H2B inh
41	0.6	0.2	1	6.3
42	-4.6	0.2	17	0.3
43	-0.4	-0.9	14	0.7
44	2.6	0.1	30	-1.3
45	-3.0	0.8	-1	0.2
46	1.2	-1.5	-1	0.5
47	7.9	0.6	11	1.4
48	1.3	-2.9	2	10.0

(further entries)
item	Compound	Beta apoptosis	T cruzi inh	Vif TR-FRET	MLL AF4-AF9 inh
49	CCCCn1c(N)c(N(CC(C)C)C(=O)CN(C)Cc2cccc(OC)c2)c(=O)[nH]c1=O	-1	-4	-6%	·
50	O=C(COC(=O)c1ccc(Cl)nc1)NCc1ccco1	·	-10	-1%	-0.3
51	O=C(O)c1ccc(NC(=O)c2cn(-c3ccccc3)nc2-c2ccc(Br)cc2)cc1	·	4	-5%	-1.3
52	O=C1CCc2cc(S(=O)(=O)NCCCC(=O)N3CCN(Cc4ccc5c(c4)OCO5)CC3)ccc2N1	-1	7	7%	0.4
53	CCc1ccc(-n2c(=O)c3ccccc3n(CC(=O)C(C)(C)C)c2=O)cc1	-3	-11	·	0.0
54	CN(C)c1cc(NC(=O)CN2CCCC2)c2ccccc2n1	3	12	22%	0.4
55	Nn1c(SCC(=O)Nc2ccc3c(c2)OCCO3)nnc(CCC(=O)O)c1=O	-7	-11	·	-2.0
56	CC(C)C(=O)N=C1NC(=O)CS1	-7	4	-2%	-4.5
57	CCC(=O)NC(=S)Nc1ccc(-c2nc3ccccc3s2)cc1	-2	4	-5%	·
58	COCCCNC(=O)Cn1nc(-c2ccccc2OC)ccc1=O	-1	-10	0%	·
59	COc1ccc(-c2nc(CS(=O)CC(=O)NC3CCCC3)c(C)o2)cc1 (stereo not drawn)	-2	2	-10%	-3.6

item	RanGTP-Imp inh	A1 inh	Calb FLC	LANA-H2B inh
49	4.5	-0.4	-4	2.7
50	1.6	-0.7	-1	-4.8
51	-0.5	0.2	24	-1.5
52	-1.0	-1.0	-1	3.0
53	-0.5	0.0	0	2.6
54	-2.6	-0.5	3	-4.1
55	-1.5	0.6	-2	-1.8
56	2.2	0.4	-6	-0.6
57	5.7	-4.9	-1	0.2
58	2.2	-0.1	-1	-1.3
59	-0.1	0.7	-12	-0.6

The order is random; 4.3% or so of the library scored in one or more.
